High-throughput results deposited in PubChem BioAssay by National Center for Advancing Translational Sciences (NCATS).
VACV mCherry inh – inhibitors of vaccinia virus infection (mCherry reporter signal) | Vaccinia virus mCherry reporter infection, fluorescence; about a quarter of the inactives have no number | Potency, µM (series often up to 36.5 µM), inactives show at the top dose activity change, negative = inhibition, hits mostly inhibitors | 0.63% of 310,000 active | AID 720579; active = well fitted inhibition curve with a large enough effect; inconclusive = small, poorly fitted or top-dose-only effect; inactive = no such curve, though single readings can be large or run the other way; tested in A549 cells; further: nearly all actives have a fitted effect of over 35% in size; inactives centre near -10
Vaccinia Venus – inhibitors of vaccinia virus (Venus reporter); Vaccinia virus Venus reporter expression, fluorescence; Potency, µM (titrated, usually from 36.5 µM), without a hit: top-dose activity change, negative = inhibition, usual class: inhibitors; AID 720580; 0.46% of 330,000 active; active means well fitted inhibition curve with a large enough effect; inconclusive means small, poorly fitted or top-dose-only effect; inactive means no such curve, though single readings can be large or run the other way; tested in A549 cells; further: nearly all actives have a fitted effect of over 30% in size; inactives centre near -10
* hit, by the source's call; i = inactive; ? = inconclusive; nt = not tested or not shown; & = joins results of further samples; [ ] = another dose, or the depositor's remark. On the % scale 0 is the no-effect control and ±100 the full control effect; potency means the concentration at half of the fitted maximal effect.

Sequence of screens – VACV mCherry inh | Vaccinia Venus
CCCn1nc(C(=O)Nc2ccc3nc(N4CCOCC4)sc3c2)ccc1=O
→ ? | -29.7%
CC1(C)CC(=O)C2=C(C1)N(CCN1CCOCC1)C1=C(C(=O)CC(C)(C)C1)C2c1cccc(Cl)c1
→ -9.3% | -10.5%
COCC(=O)NCCc1nc(-c2ccccc2)cs1
→ nt | -11.3%
O=C(O)C(=O)/C(=C\c1ccc([N+](=O)[O-])cc1)c1ccc2ccccc2n1
→ -24.3% | -10.8%
O=C(Nc1cccc(S(=O)(=O)N2CCCCC2)c1)c1cc([N+](=O)[O-])ccc1N1CCOCC1
→ -1.0% | -24.4%
CCn1nc(C)cc1C(=O)NC1CCCc2c1cnn2-c1cc(F)cc(F)c1 (centres undefined)
→ -14.1% | -22.3%
CCOC(=O)c1c(-c2ccc(C)cc2)csc1NC(=O)c1cc(-c2ccc(OC)cc2)on1
→ i | -5.9%
COc1ccc(F)cc1-c1cc(NC=O)c2ncc(-c3cc(OC)c(OC)c(OC)c3)n2c1
→ ? | ?
CCOC(=O)C1SC2(C(F)F)CC1(O)c1c(c(OC)c3occc3c1OC)O2 (centres undefined)
→ -10.8% | -6.8%
CC(C)(C)c1ccc(-c2nnc(SCCN3C(=O)c4ccccc4C3=O)o2)cc1
→ nt | -19.2%
CCN(C[C@H]1N[C@@](CC)(C(=O)OC)[C@H]2C(=O)N(C)C(=O)[C@@H]12)C(C)=O
→ -3.8% | -13.9%
COc1ccc(C2=NCCNC(C(F)(F)F)=C2)cc1
→ -14.1% | -5.8%
CCN(CC(=O)Nc1ccc(NC(C)=O)cc1)C(=O)COc1ccc2ccccc2c1
→ -0.5% | -12.9%
Cc1ccc(C2NC(=S)NC3=C2N2CCC3CC2)cc1 (centres undefined)
→ nt | 16.1%
O=[N+]([O-])c1ccc(O)c(-c2ccnc3cc(-c4ccccc4)nn23)c1
→ ? | ?
N#CC1=C(O)C(c2ccccc2)n2c1nc(=O)c1ccccc12 (centres undefined)
→ nt | 5.8%
CCOc1ccccc1N(CC)C(=O)c1cc2ccc3cccnc3c2[nH]1
→ 3.4% | -0.5%
CC(C)CCOc1ccc(C(=O)NCC(c2ccco2)N(C)C)cc1 (centres undefined)
→ -3.5% | 18.7%
O=C(COC(=O)c1cccc(F)c1)NCCC1=CCCCC1
→ -14.6% | -6.2%
COC(=O)[C@@]12C[C@@H](CC(=O)N3CCCC3)C(=O)N(Cc3ccco3)C1=CCC(C)(C)C2
→ -14.4% | -3.3%
O=C(Cc1cccc2ccccc12)Nc1nc(-c2cccc([N+](=O)[O-])c2)cs1
→ -7.4% | -6.4%
O=C(CSc1ccccc1F)NC(=O)NC1CCCC1
→ -11.2% | -22.8%
COc1cc(CN(C(=O)Nc2ccccc2)c2ccccn2)cc(OC)c1OC
→ i | -2.1%
Cc1ccc(OCC(=O)NCCNC(=O)c2ccccn2)cc1
→ -11.6% | 4.2%
CCOC(=O)C1=CCN(S(=O)(=O)c2ccccc2C)C1c1ccc(Cl)cc1 (centres undefined)
→ 33.4%[activator] | 6.6%
O=C(Nc1nnc(CCc2ccccc2)s1)c1cccs1
→ nt | -3.4%
O=C(N1CCCCCC1)N1CCN(C(=O)N2CCCCC2)CC1
→ -18.9% | -15.4%
c1ccc2c(c1)CCN(c1ncnc3nc[nH]c13)C2
→ 21.8%&-11.2% | 0.4%&-15.7%&-11.4%
Fc1ccc(CCNC(=S)Nc2ccc(F)c(Cl)c2)cc1
→ ? | ?
O=C(Cc1ccc(Cl)cc1)NCCN1CCCC1
→ -22.4% | -6.6%
Cc1cc(C)cc(NC(=O)Cn2nnc(C(=O)NCc3cccs3)c2N)c1
→ i | -26.6%
O=C(O)c1ccc2c(=O)n3c(nc2c1)/C(=C/c1ccccc1Br)CC3
→ 0.0% | 9.2%
CCNCc1cc(Cl)cc(OC)c1OC(C)C
→ -13.6% | -2.2%
S=C(NCCc1ccc(Cl)cc1)Nc1ccc(Cl)cc1Cl
→ -25.0% | ?
O=C(NCc1cccs1)C1CCN(c2nccs2)CC1
→ i | -4.7%
COC(=O)[C@H](CCSC)NS(=O)(=O)c1ccccc1Br
→ -7.3% | -7.6%
O=C(CSCc1ccc(Cl)cc1)NCc1ccc2c(c1)OCO2
→ -21.0% | -14.4%
Nn1cnnc1SCC(=O)Nc1ccc2c(c1)OCCO2
→ i | -5.3%
CCOC(=O)c1sc(=S)n(CC)c1NC(=O)C1CC1
→ nt | -17.9%
Cc1nn(CC(=O)Nc2ccc3c(c2)nc2n3CCOC2)c(=O)c2ccccc12
→ -28.0% | -7.7%
CCN1CCN(c2ccc(S(=O)(=O)N3CCOCC3)cc2NC(=O)c2ccc(F)cc2Cl)CC1
→ -2.1% | -16.1%
Cc1cc(C)cc(NC(=O)CSc2ccc(-c3ccccn3)nn2)c1
→ ? | ?
CCCN(CCC)CC(O)COc1ccccc1C(=O)Nc1ccccc1 (centres undefined)
→ i | -3.9%
Cc1ccnc2nc(C(=O)OCC(=O)NC3CCCC(C)C3C)nn12 (centres undefined)
→ -11.2% | -17.2%
COc1ccc(COc2ncnc3ccc(Br)cc23)cc1F
→ -19.4% | -4.0%

Fetched by compound from the entries so far:
Sequence of screens – VACV mCherry inh | Vaccinia Venus
COC(=O)[C@H](CCSC)NS(=O)(=O)c1ccccc1Br
→ -7.3% | -7.6%
CCNCc1cc(Cl)cc(OC)c1OC(C)C
→ -13.6% | -2.2%
Cc1cc(C)cc(NC(=O)Cn2nnc(C(=O)NCc3cccs3)c2N)c1
→ i | -26.6%

(cont.)
Sequence of screens – VACV mCherry inh | Vaccinia Venus
O=C(COc1ncnc2ccccc12)NCc1ccco1
→ -2.1% | -3.7%
COc1ccc(CNC(=O)Cc2c(C)c3c(cc(C)c4c(C)c(C)oc43)oc2=O)cc1OC
→ -15.9% | -6.6%
O=C(c1ccc(Cl)cc1)N1CCN(CCOc2ccccc2)CC1
→ -6.6% | -11.5%
CCOc1ccc(CNC(=O)c2sc3nc(C)cc(C)c3c2-n2cccc2)cc1
→ -5.7% | -1.5%
COc1cccc(-c2nc3ccccc3s2)c1O
→ -20.6% | -18.3%
COc1cc(/C=C(\NC(=O)c2ccccc2)C(=O)N2CC3CC(C2)c2cccc(=O)n2C3)cc(OC)c1OC (centres undefined)
→ -8.3% | -11.0%
CC(C)c1ccc(NC(=O)N2CCN(c3ccc(Cl)c(Cl)c3)CC2)cc1
→ -18.8% | -11.7%
Cc1cc(Cl)c2ccccc2n1
→ -5.8% | 6.1%
CCOc1cccc(/C=N/NC(=S)Nc2cc(S(=O)(=O)N3CCOCC3)ccc2N2CCOCC2)c1O
→ 7.08µM* | ?
C(=C\c1ccnc2ccccc12)/c1ccc(N2CCOCC2)cc1
→ 163.2%[activator] | 178.5%[activator]
CCOc1cc(C2C(C(=O)OC)=CN(C3CCCC3)C=C2C(=O)OC)cc(Br)c1O
→ -19.9% | -9.2%
C[C@H](CO)N1C[C@H](C)[C@@H](CN(C)Cc2ccc(C(=O)O)cc2)Oc2ncc(-c3ccc(C(=O)N(C)C)cc3)cc2C1=O
→ -27.3% | -12.8%
Cc1c(/C=C2\NC(=O)NC2=O)c2ccccc2n1C
→ -15.1% | -4.9%
COc1ccc(S(=O)(=O)c2nnn(-c3ccc(C)c(Cl)c3)c2C)cc1
→ -12.8% | -9.5%
CNc1ccc(S(=O)(=O)NCC(=O)OCC(=O)Nc2cccc(Cl)c2Cl)cc1[N+](=O)[O-]
→ i | -11.3%
COC(=O)CN1C(=O)CSc2ccc(S(=O)(=O)Nc3cccc(Br)c3)cc21
→ -9.1% | -11.5%
COC(=O)c1ccc(Cn2c(C)cc(C)[n+]2C)o1
→ i | -6.0%
COc1ccc(NC(=O)Cn2c(=O)c3cccn3c3ccccc32)cc1Cl
→ ? | ?
CCOC(=O)c1c(NC(=O)c2ccc(Br)cc2)sc2c1CCCC2
→ -8.0% | 0.7%
O=C(COC(=O)c1cccc(S(=O)(=O)N2CCc3ccccc32)c1)NC1CCS(=O)(=O)C1 (centres undefined)
→ nt | -11.1%
Cc1ccc(CCNC(=O)c2sc3nc4n(c(=O)c3c2C)CCCC4)cc1
→ -5.0% | -7.9%
CC(C)(C)OC(=O)N1CCC(CNC(=O)Nc2ccccc2)CC1
→ -12.2% | -14.0%
Cc1ccc(C2=[N+]([O-])C(C)(C)CC2)cc1
→ -11.4% | -8.6%
CN(c1ccccc1C(=O)N1CCCC1)S(C)(=O)=O
→ nt | -6.4%
O=C(O)/C=C/C(=O)Nc1ccc(Oc2ncnc3cc(Cl)ccc23)nc1
→ -2.5% | 15.9%
COc1ccc(C(=S)N2CCCC2)cc1
→ -17.0% | -6.9%
COc1ccc(/C=N/NC(=O)CSc2ccccc2)cc1OC
→ -10.2% | -8.7%
CCN(CC)CCN(C(=O)c1ccco1)c1nc2ccc(Br)cc2s1
→ -12.7% | -2.5%
CCOc1ccc(Cl)cc1C(c1c(C)[nH][nH]c1=O)c1c(C)[nH][nH]c1=O
→ -5.4% | -5.5%
CCOc1ccc(S(=O)(=O)n2c(C)nc3ccccc32)cc1
→ -4.2% | -12.1%
CN(CC(=O)Nc1ccccc1Cl)C(=O)CSc1ncc(C(F)(F)F)cc1Cl
→ ? | ?
Cc1nc([N+](=O)[O-])c(C(=O)O)n1C
→ -2.7% | -0.3%
CS(=O)(=O)N1CCCC(C(=O)Nc2cccc(F)c2)C1 (centres undefined)
→ -14.0% | -19.5%
CCn1c(=O)c2cc(C(=O)NCCN(C)C)sc2c2ccccc21
→ i | ?
CCOC(=O)C1=C(C)NC(=O)NC1c1ccoc1 (centres undefined)
→ nt | -14.4%
COc1cccc(C#Cc2ccc3c(c2)O[C@H](CN(C)S(=O)(=O)c2ccccc2F)[C@H](C)CN([C@H](C)CO)S3(=O)=O)c1
→ -6.1% | -22.0%
CC(=O)Nc1c(-c2ccccc2)nc2cc(C)ccn12
→ -18.3% | -10.6%
Cc1cc(Br)cn2c(Cc3ccsc3)c(-c3ccco3)nc12
→ 17.4% | 0.0%
CCc1cc(CNC(=O)CCc2nnc(Cc3cccc(C)c3)o2)on1
→ i | -9.7%
CCOc1ccccc1NC(=O)C(=O)NCC(c1cccnc1)N1CCN(c2ccccc2)CC1 (centres undefined)
→ ? | -15.2%
COc1ccccc1/C=C/CN1CCCC(CO)(CCc2ccccc2)C1 (centres undefined)
→ ? | -13.0%
COc1ccc2sc(-c3ccc(N(C)C)cc3)c(-c3ccc4cc[nH]c4c3)c2c1
→ -13.9% | -8.3%
Cc1ccc(O)c(C(=O)CC(=O)c2cccc(F)c2)c1
→ -22.7% | -12.3%
CC(C)C[C@H](NC(=O)C1(c2ccccc2)CCN(C(=O)[C@H]2CSCN2C(=O)OC(C)(C)C)CC1)C(=O)O
→ i | -13.5%
COc1cc(C=O)cc(OC)c1[N+](=O)[O-]
→ -8.2% | -6.8%

Profiles, quoted from the list. Values in the order: VACV mCherry inh, Vaccinia Venus
O=C(CSCc1ccc(Cl)cc1)NCc1ccc2c(c1)OCO2 across the screens: -21.0%, -14.4%
COc1cc(C=O)cc(OC)c1[N+](=O)[O-] across the screens: -8.2%, -6.8%

More results.
Sequence of screens – VACV mCherry inh | Vaccinia Venus
COC(=O)C1=CN(c2ccc(OC)cc2OC)C(N)=C(C#N)C1c1ccc(OC)cc1 (centres undefined)
→ ? | -29.5%
CCCCOc1ccccc1C1C(C(=O)OC)=CN(CC)C=C1C(=O)OC
→ -17.0% | -19.9%
O=C(Nc1cccc(C(=O)N2CCCCC2)c1)c1ccccc1Br
→ -22.7% | -17.8%
CC(C)(Oc1ccc(CCNC(=O)c2ccc(-c3ccc(Cl)cc3)o2)cc1)C(=O)O
→ -2.1% | -0.6%
O=C(Nc1nnc(-c2ccc3c(c2)OCCO3)o1)C1CCCCC1
→ i | -10.5%
Nc1ccc2c(c1)C(=O)Cc1ccccc1S2
→ -23.4% | -16.9%
COC(=O)C1=C(C(=O)OC)[C@@H]2Nc3ccccc3[C@@]23C[C@@H](C(=O)OC)N(C(=O)NC2CCCCC2)C3=N1
→ -9.2% | -13.7%
COc1ccc(C(=O)CCC(=O)N2CCN(c3ccc(N4CCOCC4)nn3)CC2)cc1
→ 34.6%[activator] | 2.9%
C=C(C)C(=O)N1CC2(CC(c3cccc(NC(=O)/C(C)=C\C)c3)=NO2)C[C@H]1C(N)=O (some centres undefined)
→ -11.3% | -7.8%
Cc1cc(-c2ccc(C)c(S(=O)(=O)NCCCN3CCCCCC3)c2)on1
→ -14.5% | -14.9%
Cc1sc(NC(=O)CCCCC(=O)Nc2sc(C)c(C)c2C(=O)O)c(C(=O)O)c1C
→ 0.3% | 10.5%
CN1CCc2c(sc3c2C(=O)NC(c2ccc(OC(=O)c4ccccc4)cc2)N3)C1 (centres undefined)
→ -15.7%[7.34 µM] | -8.7%[7.34 µM]
COc1ccc(C2CC(c3ccc4ccccc4c3OC(C)=O)=NN2C(C)=O)cc1 (centres undefined)
→ ? | -10.4%
O=c1[nH]c(SCc2ccc(Cl)cc2)nc2c1CCC2
→ -11.8% | -3.4%
CCc1nc2ccc(C(=O)NCc3ccccc3OC)cn2c1N(C)Cc1ccc(N(C)C)cc1
→ 7.2% | -7.9%
O=C(CC(NC(=O)OCc1ccccc1)c1nn[nH]n1)OCc1ccccc1 (centres undefined)
→ i | -0.9%
COc1cc(NC(=O)C2=C(C)OCCS2)c(Cl)cc1C(=O)NCCCN1CCCC(C)C1 (centres undefined)
→ -7.2% | -23.9%
CCSc1nnc(Cc2cc(=O)[nH]c(=O)[nH]2)n1-c1ccc(Cl)cc1
→ -18.9% | -4.4%
CN(C(=O)c1ccc2nc(N)sc2c1)c1ccccc1
→ i | -2.9%
